High-throughput results (PubChem BioAssay)
HPGD inh = qHTS Assay for Inhibitors of HPGD (15-Hydroxyprostaglandin Dehydrogenase). Potency, µM, without a hit: at the top dose activity change, negative = inhibition, hits mostly inhibitors. 15-hydroxyprostaglandin dehydrogenase [NAD(+)] (Homo sapiens), P15428. 150,000 compounds, 4.3% hits. purified HPGD, NADH fluorescence kinetic, PGE2 substrate; active = well fitted inhibition curve with a large enough effect (not every such curve was filed as active); inconclusive = small, poorly fitted or top-dose-only effect, or another doubt; inactive = no such curve, though single readings can be large or run the other way;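 also: top concentration of the series not given in the record; plate controls included wells without enzyme; inactives centre near -10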
Target sequence (P15428 whole entry, looked up): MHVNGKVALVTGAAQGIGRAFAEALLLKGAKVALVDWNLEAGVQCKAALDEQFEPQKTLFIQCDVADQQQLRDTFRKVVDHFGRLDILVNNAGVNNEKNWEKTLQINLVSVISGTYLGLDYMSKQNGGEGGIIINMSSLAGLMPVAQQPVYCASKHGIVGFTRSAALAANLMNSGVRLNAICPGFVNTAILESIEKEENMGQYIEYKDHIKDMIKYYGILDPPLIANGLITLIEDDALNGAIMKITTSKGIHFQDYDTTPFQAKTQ
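NADH formation kinetics: reaction with 30 uM PGE2 and 1 mM NAD+ (final), 20 nM enzyme, Tris-HCl pH 8 with Tween 20, after 15 min compound preincubation at room temperature. Fluorescence change, last versus first of five reads.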
* hit, by the source's call; ? = inconclusive; & = joins results of further samples. % is scaled to controls: 0 for no effect and ±100 for the full control effect; potency is read from the fitted curve at half-maximal effect. Only part of the results is shown (hit frequency here may not be typical).

HPGD inh	structure
-12%	CC(C)(C)NC(=S)NCc1ccc2c(c1)OCO2
-10%	Cc1ccc(-n2c(SCc3nc4ccccc4[nH]3)nnc2-c2ccncc2)cc1
-25%	O=C(COC(=O)c1c2c(nc3ccccc13)/C(=C\c1cccs1)CCC2)Nc1ccccc1Cl
-10%	Cc1ccc(-c2nnn(CC(=O)N(CC(=O)NC3CCCCC3)c3ccc(F)c(Cl)c3)n2)o1
-11%	COc1ccc(C2/C=C\C(c3ccc(OC)cc3)N(Cc3ccc(F)cc3)C(=O)C(=O)N2Cc2ccc(F)cc2)cc1 (stereo unspecified)
3%	Cc1c(NS(=O)(=O)c2ccc3[nH]c(=O)[nH]c3c2)c(=O)n(-c2ccccc2)n1C
2%	COc1ccc(Cl)cc1C(=O)NCc1cnn(C)c1C
-7%&-16%&-6%	CN(C)CCC(c1ccc(Br)cc1)c1ccccn1 (stereo unspecified)
-8%	CCS(=O)(=O)N1Cc2ccccc2CC1C(=O)Nc1nccs1 (stereo unspecified)
?	C=CCNc1nnc(Cl)c2ccccc12
-3%	CCOc1ncccc1C(=O)OCC(=O)Nc1c(C)cccc1C
-4%	CC(C)CCNc1nc2c(c(=O)[nH]c(=O)n2C)n1CC(O)COC(C)C (stereo unspecified)
-1%	CCn1nc(C)c(NC(=O)/C=C/c2cnn(C)c2C)c1C
-10%	CC(NC(=O)COc1ccccc1)C(c1ccccc1)N1CCN(C)CC1 (stereo unspecified)
-20%	Cc1cc(C)n2c(SCC(=O)NCc3ccco3)nnc2n1
-8%	COC(=O)c1sc2ccccc2c1C(=O)OC
-8%	Cc1[nH]c2ccccc2c1/C=N/Nc1nc(Nc2ccc(F)cc2)nc(N2CCOCC2)n1
-1%	Cc1nn(C(C)CC(=O)O)c(C)c1C (stereo unspecified)
-27%	COC(=O)c1c(NC(=O)C2CC=CCC2C(=O)O)sc(C(N)=O)c1C (stereo unspecified)
-17%	CCc1ccc2nc3sc(C(=O)N4CCc5ccccc54)c(N)c3cc2c1
-28%	COc1cc(/C=N/NC(=O)c2cc(-c3ccccc3OC(C)C)nc3ccccc23)ccc1O
-6%	Cn1c(NC(=O)CCc2ccccc2)cc(=O)n(C)c1=O
-10%	CCOC(=O)c1c(C)[nH]c(C)c1C(=O)COC(=O)CCOc1ccccc1OC
-10%	Cc1ccc(NC(=O)COc2ccc(-n3ccnc3)cc2)cc1Cl
-19%	COc1ccc(CC2NCCC3(O)CCCCC23)cc1 (stereo unspecified)
-29%	CO[C@@H]1/C=C\O[C@@]2(C)Oc3c(C)c(O)c4c(c3C2=O)C(=N[C@H]2CC[C@H](O)O[C@@H]2C)C=C(NC(=O)/C(C)=C\C(=O)[C@@H]2C[C@@H]2[C@@H](O)[C@H](C)[C@@H](O)[C@H](C)[C@H](OC(C)=O)[C@@H]1C)C4=O
-5%	O=C(Nc1nc(-c2cc(Cl)sc2Cl)cs1)c1ccc(Br)s1
-11%	CCOc1ccc(Br)cc1S(=O)(=O)Nc1ccccc1N1CCOCC1
-16%	O=C(NC(=S)Nc1ccc(Oc2ccc(Cl)cc2)cc1)c1ccccc1
?	COc1ccc(-c2nc(CCNC(=O)c3ccc(Br)o3)cs2)cc1
-7%	CN(C)c1ccc(C(c2ccc(N(C)C)cc2)c2ccc([N+](=O)[O-])cc2)cc1
4%	CCN(CC)CCn1c(=S)[nH]c2cc(Cl)ccc2c1=O
-21%	Cc1ccc(-c2nc(C3CCN(S(=O)(=O)c4ccc(C(C)(C)C)cc4)CC3)no2)cc1
2%	Cc1ccc(Oc2ccccc2/C=C/C(=O)O)cc1
-6%	CCNC(=S)N1CCC(c2nc3ccccc3s2)CC1
-13%	O=C1C=C(NNC(=O)c2ccccc2Br)CCC1
-22%	O=C(Nc1ccccc1)ON=C1c2ccccc2-c2ccccc21
?	COc1ccc2[nH]c3c(NCCCN4CCCC4=O)ncnc3c2c1
-9%	CCOC(=O)N1CCN(C(=O)Cn2ncc3c2-c2ccccc2OC3)CC1
-11%	Cc1cc(SCn2nnc3ccccc3c2=O)nc2ccccc12
35µM*	Cc1nn(-c2ccccc2)c(Cl)c1C1C(C#N)=C(N)Oc2c1c(C)nn2-c1ccccc1 (stereo unspecified)
-1%	c1csc(CSc2nnc3sc4ccccc4n23)c1
-24%	COc1ccc(CNC(=O)COC(=O)C2CCC(C(C)(C)C)CC2)cc1 (stereo unspecified)
-2%	COc1ccc(Nc2nc3ccccc3c(=O)s2)c(OC)c1
-13%	COC(=O)c1ccc(C(NC(=O)OCc2ccccc2)/C(F)=C/[C@@H](C)C(=O)NCc2nc3ccccc3s2)cc1 (stereo partly specified)
-3%	Cc1ccc(/C=C/C(=O)O)cc1S(=O)(=O)NCCCC(=O)O
-1%	N#CCCCSc1nnc(-c2ccc(Cl)cc2)n1-c1ccccc1
-14%	COc1cc(/C=N/NC(=O)CN(Cc2ccco2)S(=O)(=O)c2ccccc2)ccc1O
-7%	COc1cccc(NC(=O)C2C3C=CC4(O3)C2C(=O)N(C2CC2)C4C(=O)NC2CCCCC2C)c1 (stereo unspecified)
0%	OC1(c2ccccc2)C/C(=N\n2cnnc2)C=C1c1ccccc1 (stereo unspecified)
-20%	Cc1c(-c2ccc(O)cc2)nn(-c2ccc(O)cc2)c1-c1ccc(OCCN2CCCCC2)cc1
-10%	CC(C)(C)C1CCC(=NNC(=O)CC(=O)NCc2ccccc2)CC1 (stereo unspecified)
-5%	Cc1ccc(-c2nnc(N)o2)cc1
-5%	CCCC1=[N+](CC(=O)c2ccc(C)cc2)CCn2cccc21
-10%	CCOC(=O)N1CCN(C(=O)/C(=C/c2cccc3ccccc23)NC(=O)c2ccc(OC)cc2)CC1
-2%	COC(=O)c1ccc(Oc2cc(C)nc(SC)n2)cc1
-6%	COC(=O)C1ON2OC(C(=O)OC)C(C(=O)OC)C2C1CC(C)=O (stereo unspecified)
-10%	O=C(NCC(F)(F)F)Nc1ccccn1
-15%	C=C(C)C1Cc2c(C)nn(-c3ccccc3)c2C1 (stereo unspecified)
-6%	CSCCC(NC(=O)c1c(C)oc2c1CCCC2)C(=O)O (stereo unspecified)

Arranged by SMILES length (rising): some entries from above.
HPGD inh	structure
-15%	C=C(C)C1Cc2c(C)nn(-c3ccccc3)c2C1 (stereo unspecified)
4%	CCN(CC)CCn1c(=S)[nH]c2cc(Cl)ccc2c1=O
-20%	Cc1c(-c2ccc(O)cc2)nn(-c2ccc(O)cc2)c1-c1ccc(OCCN2CCCCC2)cc1
-7%	COc1cccc(NC(=O)C2C3C=CC4(O3)C2C(=O)N(C2CC2)C4C(=O)NC2CCCCC2C)c1 (stereo unspecified)

An excerpt of these results, field by field.
COc1cccc(NC(=O)C2C3C=CC4(O3)C2C(=O)N(C2CC2)C4C(=O)NC2CCCCC2C)c1 (stereo unspecified)
  HPGD inh: -7%

OC1(c2ccccc2)C/C(=N\n2cnnc2)C=C1c1ccccc1 (stereo unspecified)
  HPGD inh: 0%

Cc1c(-c2ccc(O)cc2)nn(-c2ccc(O)cc2)c1-c1ccc(OCCN2CCCCC2)cc1
  HPGD inh: -20%

CC(C)(C)C1CCC(=NNC(=O)CC(=O)NCc2ccccc2)CC1 (stereo unspecified)
  HPGD inh: -10%

(next part)
HPGD inh	structure
-10%	CCN(CC(=O)NC1CCCCCC1)S(=O)(=O)c1ccccc1
-20%	CCOC(=O)c1cnn(-c2nc3sc4c(c3c(=O)[nH]2)CCCC4)c1N
-30%	O=c1cc(O)c2sc(Nc3cccc(C(F)(F)F)c3)nc2[nH]1
2%	CCOC(=O)c1[nH]c(C)c(C(=O)OCCOc2cccc(C)c2)c1C
1%	Cc1ccc(S(=O)(=O)NC(=O)Nc2ncc3c(n2)CC(c2ccco2)CC3=O)cc1 (stereo unspecified)
2.8µM*	O=C1/C(=C/c2ccccc2O)SC(=S)N1Cc1cccnc1
?	Cc1ccc2c(c1)c1cccc3c1n2CCN3CCC(N)=O
?	O=C(Cn1c(-c2ccccn2)nc2ccccc21)NCCN1CCOCC1
-1%	CC(C)(C)c1ccc(C(=O)Nc2ccc(CC(=O)O)cc2)o1
28µM*	Cc1ccc(NS(=O)(=O)c2cc([N+](=O)[O-])ccc2NNC(=S)Nc2cccc(Cl)c2)c(C)c1
-27%	COC(=O)c1nnc(N[C@@H](Cc2c[nH]c3ccccc23)C(=O)OC)nc1C(=O)OC
?	COc1ccc2oc(=O)c(-c3nc4ccccc4o3)cc2c1
-3%	Cc1no[n+]([O-])c1COc1ccc(/C=N/n2nnnc2N)cc1
16µM*	COc1ccc(-n2nnc3c(SCc4ccccc4)ncnc32)cc1
-8%	CCC(NS(=O)(=O)c1ccc(OC)cc1)C(=O)O (stereo unspecified)
-3%	NC1=NC(c2ccc(Cl)cc2)n2c(nc3ccccc32)N1 (stereo unspecified)
-9%	O=C(COc1ccc(Cl)cc1)NCc1nnc(SCC(=O)N2CCCc3ccccc32)o1
-1%	CC(C)CC(C(=O)N1CCc2ccccc2C1)N1C(=O)c2ccccc2C1=O (stereo unspecified)
-15%	Cc1cccc(N2CCN(c3nnnn3-c3ccccc3)CC2C)c1 (stereo unspecified)
-7%	Cc1cc(Oc2ccc(C#N)cc2)nc(NCc2ccccc2)n1
-11%	CCc1nc(C)c(-c2ccccc2)c(=O)[nH]1
-11%	CN(C(=O)COC(=O)c1cccnc1Nc1cccc(C(F)(F)F)c1)C1CCS(=O)(=O)C1 (stereo unspecified)
-11%	S=C(NCc1ccccc1)NCc1cccc(CNC(=S)NCc2ccccc2)c1
-9%	CC(=O)Nc1n[nH]c(S(=O)(=O)Cc2ccc(Cl)cc2Cl)n1
-2%	CC#CC[N+](C)(C)CCCCCCCCCCCC
18µM*	CC(C)OCC(O)CSc1ccccn1 (stereo unspecified)
-13%	COc1cccc(-n2nnnc2SCC(=O)N2CCCc3ccccc32)c1
-12%	Cc1cc(C)cc(N2C(=O)CC(N(C(=O)c3ccco3)c3cc(C)cc(C)c3)C2=O)c1 (stereo unspecified)
-5%	Cc1cc(NC(=O)Cn2nc3c(cc2=O)CCCC3)ccc1Br
-11%	O=C(COC(=O)c1ccccc1F)c1ccc(-n2nncc2-c2ccco2)cc1

2 entries from above in another layout.
CN(C(=O)COC(=O)c1cccnc1Nc1cccc(C(F)(F)F)c1)C1CCS(=O)(=O)C1 (stereo unspecified)
  HPGD inh: -11%

S=C(NCc1ccccc1)NCc1cccc(CNC(=S)NCc2ccccc2)c1
  HPGD inh: -11%

Going on with the list.
HPGD inh	structure
?	Oc1ccc(Cl)cc1C=Nc1cnc2ccccc2c1
-8%	O=c1oc2c3c(nn2c2ccccc12)CCCC3
?	Cc1ccc(-c2nnn(CCC(=O)NC3CCCC3)n2)cc1
-10%	COc1ccc(C(=O)Oc2ccc(F)cc2C(=O)/C=C/c2ccc(OC)c(OC)c2)cc1
-2%	O=C(CC1(C(=O)O)CCCC1)N1CCOCC1
-12%	CS(=O)(=O)c1ccc(N2CCOCC2)c(S(C)(=O)=O)c1
?	Cc1nn(-c2ccccc2)c2nc(C(F)(F)F)[nH]c(=O)c12
-7%	Cn1c(=O)oc2cc(S(=O)(=O)NCCN3CCCCCC3)ccc21
-12%	COc1ccc(OCC(=O)O/N=C(\N)Cc2ccc(Cl)cc2)cc1
-27%	O=S(=O)(c1ccc(Cl)s1)N1CCCc2cccc(O)c21
?	Cc1nc2ccccc2nc1OCC(=O)Nc1cc(C(F)(F)F)ccc1N1CCOCC1
-10%	CC(=O)Nc1ccc(-c2csc(NC(=O)c3ccc(C)o3)n2)cc1
-25%	O=C(c1cc(C(=O)NCCc2ccccc2)c(=O)n(CCc2ccccc2)c1)c1cc(Cl)ccc1O
0%	O=CC(O)C(O)C(O)C(O)CO (stereo unspecified)
-11%	Cc1c(Br)c(C(=O)N2CCc3ccccc32)nn1C
-9%	CCNC(=O)COC(=O)C1CCC(=O)N(c2ccc(OC)cc2)C1c1ccc(OC)cc1 (stereo unspecified)
-11%	COC(=O)c1ccc(Cl)c(NC(=O)NC23CC4CC(CC(C4)C2)C3)c1
-9%	COC(=O)c1cc2occc2n1Cc1nc(-c2cccc(Cl)c2)oc1C
-14%	O=C(Cn1c(=O)sc2ccccc21)Nc1ccc(S(=O)(=O)N2CCCCC2)cc1
-6%	Cc1ccc(CN(CC2CCCO2)C(=O)CN2C(=O)C(C(C)C)Oc3ccccc32)o1 (stereo unspecified)
-4%	COC(=O)c1c(NC(=O)c2ccco2)sc2c1C(C(=O)OC)CC2 (stereo unspecified)
-3%	CNC(=O)C1Cc2ccccc2CN1S(=O)(=O)c1cccs1 (stereo unspecified)
2%	COc1ccccc1OCc1ccc(C(=O)N(C)C)o1
-20%	COC(=O)c1cc2oc3ccccc3c2n1CC(=O)N1CCCc2ccccc21
-12%	O=C(Cc1cccs1)N/N=C/c1ccco1
-4%	CCOC(=O)C1CCN(c2ccc(C(=O)O)cc2[N+](=O)[O-])CC1
-12%	O=c1cc(CN2CCN(c3cccc(Cl)c3)CC2)c2cc3c(cc2o1)CCCC3
?	COc1ccc2cc(C(C)=O)c(=O)oc2c1
14µM*	CCOC(=O)c1c(NC(=O)c2ccccc2Br)sc2c1CCc1ccccc1-2
-19%	CCOc1ccc(C2C(C(=O)c3cccs3)=C(O)C(=O)N2CCCn2ccnc2)cc1 (stereo unspecified)
-22%	O=C(/C=C/c1ccc2c(c1)OCO2)Nc1nc(-c2ccc(F)cc2)cs1
-8%	Cc1ccc(Nc2nc(C)cc(C)n2)c(Br)c1
-16%	Cc1ccc(CNC(=O)CCS(=O)(=O)c2ccc(Br)s2)o1
-13%	COc1cc(NC(=O)c2cc3c(Cl)nc4ccccc4c3s2)cc(OC)c1OC
-14%	CCOC(=O)N1CCN(S(=O)(=O)c2cc(Cl)c(OC)cc2Cl)CC1
3%	O=C(Nc1nnc(C2CCCCC2)s1)c1ccc(Br)s1
